Hedgehog inh – Hedgehog pathway signaling inhibitors, primary screen, luminescence, Shh-LIGHT2 cells, Gli-luciferase; Shh-LIGHT2 Gli-luciferase reporter, 30 h; inhibition, % (no concentration beside the values); 2.1% of 22,000 active;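 active means replicate mean of 65% or more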;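 further: pathway switched on by Shh-conditioned medium diluted 1 in 25 in low serum; 100 nL library stock added to about 40 µL; 0% = median of neutral wells and 100% = positive control level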
YB-1 expr inh – inhibitors of YB-1 gene expression, primary screen, cell-based, fluorescence; U2OS, qRT-PCR YB-1 vs CDIP delta delta Cp, 16 h; stronger effect = higher value; zero = DMSO, each unit about twofold; 0.37% of 30,000 active; delta delta Cp (YB-1 minus CDIP) (concentration not given with the values);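 active means delta delta Cp rounded down to an integer at or above 3, about 3 SD of DMSO wells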;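 further: higher means less YB-1 transcript or more CDIP transcript relative to DMSO; stock transfer was 100 nL into about 100 µL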
MITF inh – inhibitors of MITF, primary screen, MITF inhibitor project, cell-based, luminescence; inhibition, % (test concentration not listed); 0.28% of 37,000 active; TRPM1 promoter luciferase, 24 h;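 active means most replicates at 85% or more, or half of them and the mean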;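 further: human melanocyte line stably carrying TRPM1 promoter luciferase reporter; 0% = vehicle wells and 100% = a positive control; the first replicate is given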
PD-1 reverse act – activators reversing PD-1 mediated T-cell inhibition, primary screen, luminescence, primary human CD4 T cells, PD-L1 beads; AID 2316, 2010; activation, % (no concentration beside the values); CellTiter-Glo 96 h; 29,000 tested, under 10 active;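 active means replicate mean of 50% or more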;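 further: 0% = median vehicle wells and 100% = positive control; 100 nL library stock added to about 50 µL; numbers are from one replicate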
An asterisk follows results filed as active; x = no result given.

SMILES	Hedgehog inh	YB-1 expr inh	MITF inh	PD-1 reverse act
CCCc1c(C(=O)OCC)c(C(=O)OCC)c2c(-c3ccccc3)nc(N3CCOCC3)nn12	78.4*	3.23*	25.1	-0.6
Cc1onc(-c2ccccc2Cl)c1C(=O)NCc1ccc(N2CCCC2=O)cc1	x	x	16.1	0.3
C[C@H]1CN([C@@H](C)CO)C(=O)Cc2cc(NS(C)(=O)=O)ccc2O[C@H]1CN(C)Cc1ccc(-c2ccccc2)cc1	23.1	-0.29	3.4	-2.2
C[C@@H]1CCCCO[C@@H](CN(C)C(=O)Nc2ccc(C(F)(F)F)cc2)[C@@H](C)CN([C@H](C)CO)C(=O)c2cc(NC(=O)Nc3ccc(C(F)(F)F)cc3)ccc2O1	60.8	-0.153	-8.8	-2.5
C[C@H](CO)N1C[C@H](C)[C@@H](CN(C)Cc2ccc(C(=O)O)cc2)Oc2c(NS(=O)(=O)c3cn(C)cn3)cccc2C1=O	-29.8	-0.0537	-7.7	2.0
COc1ccc(S(=O)(=O)Nc2ccc3c(c2)CC(=O)N([C@H](C)CO)C[C@H](C)[C@H](CN(C)C(=O)Nc2cccc4ccccc24)O3)cc1	-12.1	0.177	-5.8	-1.1
COc1ccc(C2Oc3c(OC)cc(/C=C/COC4OC(CO)C(O)C(O)C4O)cc3C2CO)cc1OC (stereo not drawn)	9.8	0.252	-10.8	1.6
CNC[C@H]1Oc2ccc(NC(=O)Nc3ccc(OC)cc3)cc2C(=O)N([C@H](C)CO)C[C@@H]1C	-9.9	0.0895	-7.5	x
C[C@H]1CN([C@@H](C)CO)C(=O)c2cc(NC(=O)c3ccncc3)ccc2O[C@H]1CN(C)S(=O)(=O)c1ccc(Cl)cc1	x	0.164	3.1	-1.0
Cc1ccc(S(=O)(=O)N(C)C[C@H]2Oc3c(NC(=O)Nc4ccccc4)cccc3C(=O)N([C@H](C)CO)C[C@H]2C)cc1	31.6	-0.659	-10.4	-0.2
CCc1ccc(OCC(=O)Nc2ccccc2C(=O)OC)c(Br)c1	x	x	-19.1	1.7
COc1ccc(S(=O)(=O)N(C)C[C@@H]2Oc3c(NC(=O)CCCCCC(=O)Nc4ccccc4N)cccc3C(=O)N([C@@H](C)CO)C[C@@H]2C)cc1	x	-0.327	9.0	2.6
C[C@@H]1CN([C@H](C)CO)C(=O)Cc2cc(NC(=O)Nc3ccc4c(c3)OCO4)ccc2O[C@@H]1CN(C)Cc1ccc(C(=O)O)cc1	x	-0.744	-6.1	1.1
C[C@@H]1CN([C@H](C)CO)C(=O)c2cc(NC(=O)Cn3cnnn3)ccc2O[C@@H]1CN(C)CC1CC1	-42.7	-0.303	-2.2	-0.4
Cc1ccc(-c2cc(C(F)(F)F)nn2-c2ccc(S(N)(=O)=O)cc2)cc1	16.9	-0.054	15.2	x
COc1ccc(CN(C)C[C@@H]2Oc3c(NS(C)(=O)=O)cccc3C(=O)N([C@H](C)CO)C[C@H]2C)cc1	-22.0	0.19	-0.1	-1.3
C[C@H](CO)N1C[C@H](C)[C@H](CN(C)Cc2ccc(C(=O)Nc3ccccc3N)cc2)Oc2ccc(NC(=O)Nc3ccccc3)cc2CC1=O	x	-0.421	15.1	-5.3
CN1C(=O)c2ccc(NC(=O)c3cccc4ccccc34)cc2C1=O	-37.0	0.106	-26.9	-0.2
COc1ccc(S(=O)(=O)N(C)C[C@H]2Oc3c(NS(C)(=O)=O)cccc3C(=O)N([C@@H](C)CO)C[C@@H]2C)cc1	-13.0	0.207	-7.6	0.7
C[C@@H]1CN([C@@H](C)CO)C(=O)c2cc(NC(=O)Nc3ccccc3)ccc2O[C@H]1CN(C)S(=O)(=O)c1ccc(Cl)cc1	-3.8	-0.228	-26.3	x
COC(=O)C1=C(C)NC(=S)NC1c1cccc(OC)c1OCc1ccccc1 (stereo not drawn)	x	x	2.6	-2.8
C[C@H](CO)N1C[C@H](C)[C@@H](CN(C)Cc2ccc(C(F)(F)F)cc2)Oc2c(NC(=O)C3CCCCC3)cccc2C1=O	-12.5	-0.825	43.3	-1.8
C[C@H]1CN([C@@H](C)CO)C(=O)c2cccc(NC(=O)Nc3ccc(C(F)(F)F)cc3)c2O[C@H]1CN(C)Cc1ccccc1	-22.8	-0.713	-15.6	x
CC1(C)CC(=O)C=C(Sc2nc3ccccc3o2)C1	86.9*	1.39	77.1	-36.5
Cc1noc(C)c1S(=O)(=O)N(C)C[C@H]1Oc2ccc(NC(=O)CCC(F)(F)F)cc2CC(=O)N([C@@H](C)CO)C[C@@H]1C	x	0.29	-25.3	x
Cn1c(=O)c2c(nc(OCc3cccnc3)n2Cc2c(F)cccc2Cl)n(C)c1=O	x	x	-8.4	-1.2
CC(=O)Nc1ccc(-c2nnc(SCC(=O)NC3CCCCC3)n2C)cc1	x	x	-16.4	1.3
C[C@@H]1CN([C@H](C)CO)C(=O)c2cccc(NS(C)(=O)=O)c2O[C@H]1CN(C)S(=O)(=O)c1ccc(Cl)cc1	14.1	0.571	-4.8	-0.9
C[C@H]1CN([C@@H](C)CO)C(=O)c2cccc(N(C)C)c2O[C@@H]1CN(C)S(=O)(=O)c1ccc(Cl)cc1	-44.8	-0.318	16.1	x
C[C@@H]1CN([C@H](C)CO)C(=O)c2cccc(NS(=O)(=O)c3ccccc3)c2O[C@@H]1CN(C)Cc1ccc2c(c1)OCO2	18.9	-0.0132	-21.6	0.2
Cc1noc(C)c1NC(=O)N(C)C[C@H]1Oc2ccc(NC(=O)Nc3ccccc3)cc2C(=O)N([C@@H](C)CO)C[C@@H]1C	-30.3	-0.675	-5.7	1.6
CNC[C@@H]1OCCCC[C@@H](C)Oc2ccc(NC(=O)Nc3ccc(F)cc3)cc2C(=O)N([C@H](C)CO)C[C@@H]1C	-9.7	-0.246	-5.9	0.1
CC1(C)CC[C@]2(C(=O)O)CC[C@]3(C)C(=CCC4[C@@]5(C)CC[C@H](O[C@@H]6O[C@H](C(=O)O)[C@@H](O[C@@H]7OC[C@@H](O)[C@H](O)[C@H]7O)[C@H](O)[C@H]6O)C(C)(C)C5CC[C@]43C)C2C1O (stereo partly drawn)	-18.4	-0.663	-7.6	-2.0
C[C@H](CO)N1C[C@H](C)[C@H](CN(C)C(=O)Nc2ccc(C(F)(F)F)cc2)Oc2ccc(NC(=O)Cc3cn(C)c4ccccc34)cc2C1=O	6.2	0.25	31.1	x
COc1ccc(S(=O)(=O)N(C)C[C@@H]2Oc3ccc(NC(=O)Nc4c(C)noc4C)cc3C(=O)N([C@@H](C)CO)C[C@@H]2C)cc1	x	0.134	-3.6	2.9
CCC(C)NC(=O)CSc1ccc(Cl)cc1 (stereo not drawn)	-23.3	0.276	5.0	-0.3
COc1ccc(OC)c(NC(=O)CSc2nc(-c3ccccc3)cs2)c1	x	x	66.4	-4.8
C/C(=C\CCC(C)C1CC(O)C2(C)C3CCC4C(C)(C)C(OC5OCC(O)C(O)C5O)CCC45CC35CC(O)C12C)C(=O)O (stereo not drawn)	-9.5	-0.668	8.0	-0.2
CNC[C@@H]1Oc2ccc(NS(C)(=O)=O)cc2CC(=O)N([C@@H](C)CO)C[C@@H]1C	-7.9	0.147	-13.2	3.6
COc1ccc(NC(=O)N(C)C[C@H]2Oc3ccc(NC(=O)Nc4ccc(F)cc4)cc3C(=O)N([C@H](C)CO)C[C@H]2C)cc1	-4.8	0.405	-16.8	-1.3
Cc1cc(C)c(-c2csc(Cc3nc(-c4cc5ccccc5oc4=O)cs3)n2)cc1C	x	x	32.6	1.4
C=CCn1c(SCc2nc3ccccc3c(=O)[nH]2)nnc1-c1cc2cc(Cl)ccc2o1	x	x	1.9	-2.1
C[C@H](CO)N1C[C@H](C)[C@H](CN(C)C(=O)Nc2cccc3ccccc23)Oc2c(NC(=O)c3nc4ccccc4s3)cccc2C1=O	30.2	0.626	-10.5	x
C[C@H](CO)N1C[C@H](C)[C@H](CN(C)CC2CCCCC2)Oc2ccc(NC(=O)C3CC3)cc2C1=O	-13.3	-0.282	-4.7	-1.4
C[C@@H]1CCCCO[C@H](CN(C)C(=O)CCC(F)(F)F)[C@@H](C)CN([C@H](C)CO)C(=O)c2cc(NC(=O)NC3CCCCC3)ccc2O1	-11.1	-0.265	10.0	-0.3
C[C@H]1CN([C@@H](C)CO)C(=O)Cc2cc(NC(=O)Nc3ccc4c(c3)OCO4)ccc2O[C@H]1CN(C)Cc1ccc(C(=O)O)cc1	-15.6	0.187	12.5	x
CNC[C@@H]1Oc2c(NC(=O)c3cc(C)nn3C)cccc2C(=O)N([C@H](C)CO)C[C@H]1C	-23.2	-0.049	-4.8	1.8
CNC[C@@H]1Oc2c(NS(=O)(=O)c3ccc(F)cc3)cccc2C(=O)N([C@H](C)CO)C[C@H]1C	-4.7	-0.138	4.9	0.5
O=C(NCCCn1ccnc1)C1CCC1	x	x	-6.1	3.2
Cc1noc(C)c1S(=O)(=O)N(C)C[C@H]1Oc2c(NS(=O)(=O)c3ccccc3)cccc2C(=O)N([C@@H](C)CO)C[C@H]1C	-43.3	-0.121	7.7	x
C[C@@H]1CN([C@H](C)CO)C(=O)Cc2cc(N(C)C)ccc2O[C@@H]1CN(C)C(=O)Nc1ccc2c(c1)OCO2	0.6	-0.156	-2.7	3.5
C/C=C1\[C@H](O[C@@H]2O[C@H](CO)[C@@H](O)[C@H](O)[C@H]2O)OC=C(C(=O)OC)[C@H]1CC(=O)OC[C@H]1O[C@@H](OCCc2ccc(O)cc2)[C@H](O)[C@@H](O)[C@@H]1OC(=O)C[C@@H]1C(C(=O)OC)=CO[C@@H](O[C@@H]2O[C@H](CO)[C@@H](O)[C@H](O)[C@H]2O)/C1=C\C	11.5	0.758	5.6	2.5
C[C@@H]1CN([C@@H](C)CO)C(=O)c2cc(NC(=O)CCCN(C)C)ccc2O[C@H]1CN(C)Cc1ccncc1	8.0	0.0102	-1.0	x
Cc1noc(C)c1NC(=O)N(C)C[C@H]1Oc2ccc(NC(=O)CCN3CCOCC3)cc2CC(=O)N([C@@H](C)CO)C[C@H]1C	66.5*	-0.548	0.2	1.3
C[C@H]1CN([C@@H](C)CO)C(=O)c2cccc(NS(=O)(=O)c3ccccc3)c2O[C@@H]1CN(C)C(=O)Nc1ccc(F)cc1	33.0	0.0516	-5.2	2.7
Cc1noc(C)c1S(=O)(=O)Nc1ccc2c(c1)CC(=O)N([C@H](C)CO)C[C@H](C)[C@H](CN(C)C(=O)Nc1ccc3c(c1)OCO3)O2	21.7	0.0529	-9.6	0.2
CC(C)C(NC(=O)c1ccc(O)cc1)C(=O)N1CCCC1C(=O)Nc1c(O)cccc1C(=O)O (stereo not drawn)	10.2	-1.35	-2.4	1.4
Cc1ccc(C(=O)NC(=S)NCc2ccco2)cc1[N+](=O)[O-]	x	x	3.7	0.7
C[C@@H]1CN([C@@H](C)CO)C(=O)Cc2cc(NC(=O)Nc3ccc4c(c3)OCO4)ccc2O[C@@H]1CN(C)CC1CCCCC1	x	-0.376	16.6	x
C[C@H]1CN([C@@H](C)CO)C(=O)c2cccc(NC(=O)C3CCCCC3)c2O[C@H]1CN(C)Cc1ccc(Cl)c(Cl)c1	23.9	-0.414	0.3	-1.7

(continued)
SMILES	Hedgehog inh	YB-1 expr inh	MITF inh	PD-1 reverse act
C[C@H](CO)N1C[C@H](C)[C@@H](CN(C)Cc2ccc(C(F)(F)F)cc2)Oc2c(NS(C)(=O)=O)cccc2C1=O	-39.5	-0.394	-10.0	x
Cc1noc(C)c1NC(=O)N(C)C[C@H]1Oc2ccc(NC(=O)C3CC3)cc2C(=O)N([C@@H](C)CO)C[C@H]1C	26.2	-0.0466	8.7	0.8
C[C@H](CO)N1C[C@H](C)[C@H](CN(C)Cc2ccc(C(=O)O)cc2)Oc2c(NS(C)(=O)=O)cccc2C1=O	-19.7	1.54	-2.2	1.1
C[C@@H]1CN([C@H](C)CO)C(=O)Cc2cc(NC(=O)c3ccncc3)ccc2O[C@@H]1CN(C)Cc1ccc(C(=O)O)cc1	-2.0	-0.226	-4.4	2.7
C[C@H](CO)N1C[C@H](C)[C@H](CN(C)S(=O)(=O)c2cn(C)cn2)Oc2ccc(N(C)C)cc2CC1=O	-35.5	-0.251	-4.3	1.4
Cc1noc(C)c1NC(=O)N(C)C[C@H]1Oc2c(cccc2N(C)C)C(=O)N([C@@H](C)CO)C[C@@H]1C	-16.8	-0.319	-4.0	x
CC1(C)NC(=S)N(c2ccccc2)N1	-48.7	0.0183	-24.5	-0.5

Entries listed so far containing two or more sulfur atoms (5):
SMILES	Hedgehog inh	YB-1 expr inh	MITF inh	PD-1 reverse act
COc1ccc(S(=O)(=O)N(C)C[C@H]2Oc3c(NS(C)(=O)=O)cccc3C(=O)N([C@@H](C)CO)C[C@@H]2C)cc1	-13.0	0.207	-7.6	0.7
C[C@@H]1CN([C@H](C)CO)C(=O)c2cccc(NS(C)(=O)=O)c2O[C@H]1CN(C)S(=O)(=O)c1ccc(Cl)cc1	14.1	0.571	-4.8	-0.9
COc1ccc(OC)c(NC(=O)CSc2nc(-c3ccccc3)cs2)c1	x	x	66.4	-4.8
Cc1cc(C)c(-c2csc(Cc3nc(-c4cc5ccccc5oc4=O)cs3)n2)cc1C	x	x	32.6	1.4
Cc1noc(C)c1S(=O)(=O)N(C)C[C@H]1Oc2c(NS(=O)(=O)c3ccccc3)cccc2C(=O)N([C@@H](C)CO)C[C@H]1C	-43.3	-0.121	7.7	x

Not all compounds are listed; rates above refer to the full screens.
